GIV Gai3 FP – inhibitors of GIV GBA-motif binding to rat Galpha-i3; P08753; 210,000 tested, 0.42% active; percent of control (FP), % (test concentration not listed); Galpha-i3/FITC-GIV peptide fluorescence polarization, 90 min; stronger effect = lower value; scaled: aluminum fluoride 0%, vehicle 100%;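 active means replicate mean at 85% of control or lower, very high polarization wells dropped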;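 further: wells of about 15 µL received 100 nL stock; the first replicate is given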
Target sequence (P08753 whole entry, looked up): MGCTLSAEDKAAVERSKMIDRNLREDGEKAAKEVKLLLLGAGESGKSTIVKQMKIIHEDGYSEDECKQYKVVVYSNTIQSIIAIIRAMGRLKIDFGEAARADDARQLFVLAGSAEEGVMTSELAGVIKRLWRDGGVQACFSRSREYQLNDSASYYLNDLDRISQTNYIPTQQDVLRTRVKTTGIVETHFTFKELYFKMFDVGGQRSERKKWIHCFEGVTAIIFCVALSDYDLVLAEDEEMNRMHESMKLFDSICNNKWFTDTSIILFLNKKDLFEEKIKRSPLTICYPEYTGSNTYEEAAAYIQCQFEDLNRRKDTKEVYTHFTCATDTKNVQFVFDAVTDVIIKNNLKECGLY
* = called active by the depositor.

SMILES	GIV Gai3 FP
COc1ccc(C(=O)Cn2c(=O)n3nc(-c4ccccc4)nc3c3cc(OC)c(OC)cc32)cc1OC	105.6
CCN(CC)C(=O)CN1CCN(c2ncc(NC(=O)c3ccc(Cl)cc3)cc2C(=O)O)CC1	118.2
Cc1cccc(-n2cc(-c3ccccc3)c3c(NCCc4ccc(S(N)(=O)=O)cc4)ncnc32)c1	105.2
CC(=O)Nc1ccc2c(c1)C1C=CCC1C(c1ccccc1F)N2 (centres undefined)	122.4
Cc1ccccc1-c1nn2c(=O)cc(CN3CCN(C(=O)Nc4ccc5c(c4)OCCO5)CC3)nc2s1	97.8
COc1cccc(OC)c1OCCn1c(-c2ccc(Cl)cc2)nc2ccccc2c1=O	107.9
O=C(Nc1ccc2c(c1)OCCO2)C1Cc2ccccc2CN1S(=O)(=O)c1ccccc1 (centres undefined)	108.2
CNC(=O)N1CCCN(S(C)(=O)=O)CC1	97.6
COc1ccc(-c2csc(=Nc3ccc(OC(F)(F)F)cc3)n2CCc2ccc(S(N)(=O)=O)cc2)cc1F	100.3
CCc1onc(C)c1C1CCCN1Cc1ccncc1 (centres undefined)	107.8
COc1ccc(N2C(=O)C(N3C(=O)c4ccccc4C3=O)C2c2ccc(F)cc2)c(OC)c1 (centres undefined)	109.9
COc1cccc(C2CC(c3ccc(Br)cc3)=NN2C(=O)c2ccc(Br)o2)c1OC (centres undefined)	108.7
CCc1cc(-c2csc(S(=O)(=O)NCc3ccc(OC(C)C)cc3)c2)on1	104.9
COc1cc(-c2nc3ccccc3c(=O)n2Cc2cccc(F)c2)cc(OC)c1OC	115.2
CCc1nnc(NS(=O)(=O)c2ccc(NC(=O)c3cc4cc(OC)ccc4oc3=O)cc2)s1	102.2
CCOC(=O)c1c(C)[nH]c(CCC(=O)Nc2cc(-c3cccc(Cl)c3)no2)c1C	106.3
Cc1nc(-c2cc(S(=O)(=O)N(C)C3CCCCC3)c(C)s2)sc1C	103.6
CCn1cnnc1C1CCCN(Cc2ccccc2C)C1 (centres undefined)	112.1
Cc1ccc(C)c(NC(=O)Cn2nc3c4sc(N(C)C)nc4ncn3c2=O)c1	100.6
COc1ccc(NC(=O)c2sc3ncn(CC(=O)Nc4cccc(C(F)(F)F)c4)c(=O)c3c2C)c(OC)c1	103.5
CCC(C)NC(=O)CSc1nnc2c3ccccc3nc(-c3ccccc3)n12 (centres undefined)	95.5
Cc1ccccc1NC(=O)c1c(C)nc(SCC(N)=O)c(C#N)c1-c1ccc(Cl)cc1	105.7
CC1(C)SC(=S)N(/N=C/C=C/c2ccc([N+](=O)[O-])o2)C1N(O)C(=O)Nc1ccccc1 (centres undefined)	107.2
Cn1nc(CC(=O)Nc2nccs2)c2ccccc2c1=O	104.2
O=C1CSC(c2cc3c(cc2Br)OCO3)N1c1ccccc1F (centres undefined)	113.2
Cc1ccccc1NC(=O)/C(C#N)=C(\Nc1ccccc1)SCc1ccccc1Cl	100.8
CCCS(=O)(=O)c1c(S(=O)(=O)CCC)c2ccc(C(N)=O)cn2c1C(=O)c1ccc(F)cc1	124.8
C=CCn1c(=O)c(C(=O)Nc2ccc(C)cc2Br)c(O)c2ccccc21	97.5
O=C(Nc1ccc(F)c(F)c1)c1cc(S(=O)(=O)N2CCN(c3ccccc3Cl)CC2)ccc1F	104.1
CCSc1nnc(NC(=O)CN(C)S(=O)(=O)c2cc3c(cc2C)NC(=O)C(C)O3)s1 (centres undefined)	109.1
CCOC(=O)C1=C(O)/C(=C/c2ccccc2)SC1=Nc1ccc(F)cc1	113.7
CCOC(=O)c1c(-c2ccccc2)oc2ccc(OCc3ccc(Br)cc3)cc12	101.2
Cc1cccc2c1N(C(=O)C1CC1)C(C)(C)c1ssc(=S)c1-2	109.7
Cc1ccc2nc(-c3ccccc3NC(=O)c3ccc(F)cc3)ccc2c1	104.3
CCOC(=O)c1ccccc1NC(=O)CSc1nc2n[nH]c(C)c2c(=N)n1-c1ccc(Br)cc1	116.9
COc1cc(C2C(C#N)=C(N)Oc3n[nH]c(-c4ccc(C)cc4)c32)cc(OC)c1OC(=O)c1ccco1 (centres undefined)	102.1
Cc1cc(C)c2c(c1)c(-c1ccccc1)c(-c1ccccc1)n2CC(O)Cn1nc(C)c(Br)c1C (centres undefined)	105.7
Cc1ccc(C(=O)N/C(=C\c2ccc3c(c2)OCO3)C(=O)Nc2ccccc2Br)cc1C	110.5
c1ccc2c(CCNCCSSCCNCCc3c[nH]c4ccccc34)c[nH]c2c1	106.1
CC1CC(C)(C)NC(=S)N1c1cccc(O)c1 (centres undefined)	110.8

An excerpt of these results, with the structure last.
GIV Gai3 FP | Molecule
110.5 | Cc1ccc(C(=O)N/C(=C\c2ccc3c(c2)OCO3)C(=O)Nc2ccccc2Br)cc1C
101.2 | CCOC(=O)c1c(-c2ccccc2)oc2ccc(OCc3ccc(Br)cc3)cc12
116.9 | CCOC(=O)c1ccccc1NC(=O)CSc1nc2n[nH]c(C)c2c(=N)n1-c1ccc(Br)cc1
106.1 | c1ccc2c(CCNCCSSCCNCCc3c[nH]c4ccccc34)c[nH]c2c1
109.7 | Cc1cccc2c1N(C(=O)C1CC1)C(C)(C)c1ssc(=S)c1-2

The list goes on.
SMILES	GIV Gai3 FP
COc1ccc(OC)c(NC(=O)CN(C)S(=O)(=O)c2cc3c(cc2C)NC(=O)CO3)c1	107.5
CSc1nc(N)nc(SCc2ccc(Cl)c(Cl)c2)c1C#N	105.5
CN(CCO)c1cc(N2CCCCCC2)c2nonc2c1[N+](=O)[O-]	103.6
O=[N+]([O-])c1ccc(CSc2nc(NCC3CCCO3)c3ccccc3n2)cc1 (centres undefined)	116.5
O=C(CN1C(=O)c2ccccc2C1=O)OCCOCCN=C1NS(=O)(=O)c2ccccc21	102.1
CCN(CC)CCCNc1nc(-c2ccc(Cl)cc2)nc2ccccc12	100.8
COC(=O)c1ccc(NC(=O)NCc2nnc(C(=O)Nc3ccccc3)s2)cc1	111.3
CCOC(=O)c1nnn(-c2nonc2N)c1CSc1nc2ccc(OC)cc2[nH]1	109.5
O=c1c2nnc(SCc3ccc(Cl)cc3)n2ccn1-c1cccc(F)c1	101.4
Cc1nn(-c2ccc3nnc(C)n3n2)c(C)c1CCC(=O)Nc1ccccc1	98.1

Already shown: entries from further up.
SMILES	GIV Gai3 FP
CCOC(=O)c1nnn(-c2nonc2N)c1CSc1nc2ccc(OC)cc2[nH]1	109.5
O=c1c2nnc(SCc3ccc(Cl)cc3)n2ccn1-c1cccc(F)c1	101.4
Cc1nn(-c2ccc3nnc(C)n3n2)c(C)c1CCC(=O)Nc1ccccc1	98.1

Next section
SMILES	GIV Gai3 FP
c1cc(N2CCSCC2)ncc1-c1noc(CN2CCOCC2)n1	102.2
Clc1ccccc1-c1csc(Nc2ccccn2)n1	108.8
C=CCN1N=C(c2ccc(C)cc2)SC(C)=C1c1ccc(OC)cc1	108.2
O=C(CN1CCCCC1)N1c2ccccc2C=Cc2ccccc21	106.2
CN(C)CCNC(=O)CCc1nc(CS(=O)(=O)c2ccccc2)no1	106.3
COCCn1c(SCc2nc(-c3cccc(F)c3)no2)nc2cc3c(cc2c1=O)OCO3	108.2
CCN(CC)C(=O)c1sc(-c2cc(S(=O)(=O)NC3CCCCC3)c(C)n2C)nc1C	97.6
CCN(CC)c1ccc2cc(-c3nc(-c4ccc(Cl)cc4)cs3)c(=Nc3ccc(OC)cc3)oc2c1	135.8
CCCn1cnc2c(-c3ccc(F)cc3)csc2c1=O	106.7
Cc1ccc(-c2csc(Cc3nc(-c4ccc5c(c4)OCO5)no3)n2)cc1C	99.8

More records
canonical_smiles | GIV Gai3 FP
Cc1ccc(CN2C(=O)CCC2C(=O)NCCCN2CCC(Cc3ccccc3)CC2)cc1 (centres undefined) | 106.0
O=c1[nH]c(=O)c2nc3c(ccc4nsnc43)nc2[nH]1 | 120.3
O=c1[nH]c(Cc2ccccc2)nc2c1C1(CCCC1)Cc1ccccc1-2 | 107.4
O=C(CCc1nc(CSc2nnc(-c3ccncc3)o2)no1)Nc1ccc(F)cc1 | 104.7
OCCNc1nc(Nc2ccc(Cl)cc2)nc(N2CCCC2)n1 | 103.9
O=C(Nc1ccc(F)c(-c2nnc(-c3ccccc3)o2)c1)Nc1ccccc1F | 110.0
CCc1ccc(C2(c3ccc(CC)cc3)CC2C(=O)Nc2ccc(Cl)cc2)cc1 (centres undefined) | 117.1
CCCCc1nc2c3ccccc3n(C(C)C(=O)c3ccc(C)c(C)c3)c(=O)n2n1 (centres undefined) | 94.9
CCS(=O)(=O)N1CCCN(C2=NS(=O)(=O)C(c3ccc(C)c(C)c3)=C2C)CC1 | 105.3
CC(C)c1nnc(NC(=O)CCN2C(=O)c3ccccc3C2=O)s1 | 123.6
O=C(Cn1c(=O)n2nc(-c3ccc(F)cc3)nc2c2ccccc21)N1CCN(c2ccccc2F)CC1 | 98.9
O=C(Nc1sc2c(c1C(=O)Nc1ccccn1)CCCCC2)c1ccccc1 | 111.0
CC(=O)c1ccc(N2CCN(C(=O)CCCN3C(=O)C4C5C=CC(C5)C4C3=O)CC2)cc1 (centres undefined) | 107.8
O=C(Nc1cc(Cl)cc(Cl)c1)c1cc2n(n1)C(C(F)(F)F)CC(c1ccc3c(c1)OCO3)N2 (centres undefined) | 103.0
C=CCNC(=O)CSc1nc2c(cnn2-c2ccc(Cl)cc2)c(=O)[nH]1 | 100.1
c1cc(-c2cc(N3CCSCC3)n[nH]2)ccn1 | 102.2
COc1ccc(Nc2ncnc3c2cnn3-c2ccc(Cl)cc2)cc1OC | 107.1
O=C(NCc1ccc(F)cc1)c1ccc(-c2cnc(NC3CCCCC3)nc2)cc1 | 100.6
O=C(Nc1ccc(F)cc1F)N1CCC(N2CCN(Cc3ccc(F)cc3)C(=O)C2=O)CC1 | 100.7
Cc1cccc(-c2noc(-c3nnn(Cc4nc(-c5cccc(Cl)c5)oc4C)c3C)n2)c1 | 116.3
O=C(COc1ccccc1)N1N=C2CCCCCC2C1(O)C(F)(F)F (centres undefined) | 108.1
CCC(C)NC(=O)c1nn2c(C)cc(C)nc2c1-c1ccc(OC)c(S(=O)(=O)N2CCCC2)c1 (centres undefined) | 107.6
COC(=O)c1c(-c2cccc(Cl)c2)noc1NC1CC1 | 105.0
Cc1cccc2oc3cc(NC4CCCCC4)c4c(=O)c5ccccc5c(=O)c4c3[nH]c12 | 101.1
CCOC(=O)C1=C(O)/C(=C/c2ccc(C)cc2)SC1=Nc1ccc(C)cc1 | 110.6
c1ccc(-c2nc(Cn3ccnc3)no2)cc1 | 108.3
COc1ccc(-n2c(-c3ccccc3)cn3c4c(=O)n(C)c(=O)n(C)c4nc23)cc1 | 104.5
COc1ccc(C(OCC2OC(n3cc(C)c(=O)[nH]c3=O)CC2OS(C)(=O)=O)(c2ccccc2)c2ccc(OC)cc2)cc1 (centres undefined) | 105.9
Cc1cccc(C)c1NC1=NC(=S)N(c2cccc(O)c2)C12CCC(C(C)(C)C)CC2 (centres undefined) | 105.5
O=C(CCn1cnc2c(-c3ccccc3)noc2c1=O)NC1CCS(=O)(=O)C1 (centres undefined) | 99.0
CCC(C)NC(=O)C1CCN(Cc2cn(C)c3ccc(OC)cc23)CC1 (centres undefined) | 101.5
NS(=O)(=O)c1ccc(CCn2c(SCC(=O)Nc3cccc(C(F)(F)F)c3)nc3ccccc3c2=O)cc1 | 113.8
COc1ccc(Nc2nc(Cl)nc(NCCN3CCOCC3)n2)cc1 | 120.4
COC(=O)c1cccc(NC(=O)/C(=C\c2ccc3c(c2)OCO3)NC(=O)c2ccc(Br)cc2)c1 | 113.7
COc1ccc(Nc2ncnc3c2cnn3-c2ccc(C)cc2C)c(OC)c1 | 104.4
O=C(c1cccc(N2C(=O)C3CC=CCC3C2=O)c1)N1CCN(c2ccccc2)CC1 (centres undefined) | 107.6
COc1ccc(-c2nnc(SCc3nc(N)nc(Nc4ccccc4)n3)o2)cc1 | 103.6
CNC(=O)c1c(NC(=O)c2ccc(S(=O)(=O)N3CCc4ccccc4C3)cc2)sc2c1CCC2 | 105.2
O=C(NCC(=O)N1CCN(c2ccccc2)CC1)c1ccsc1 | 108.0
CCN(CC)CCNC(=O)c1ccc(Oc2nccnc2Sc2ccc(Cl)cc2)cc1 | 98.9
Cn1c(=O)c2nc(SCCC(=O)Nc3c(F)cccc3F)n(C)c2n(C)c1=O | 104.8
CC1CCc2cc(F)ccc2N1C(=O)c1ccc(N2CC3CC(C2)c2cccc(=O)n2C3)c(NC(=O)c2cccs2)c1 (centres undefined) | 120.1
CC(C)CC(C(=O)Nc1oc(-c2ccccc2)c(-c2ccccc2)c1C#N)N1C(=O)c2ccccc2C1=O (centres undefined) | 108.1
CC1(C)CC(=O)C2=C(C1)OC1=C(C(=O)CC(C)(C)C1)C2c1cccc2ccccc12 | 110.2
CCOC(=O)c1ccc(NC(=O)c2sc(=S)n(-c3cccc(OC)c3)c2N)cc1 | 110.9
Cn1c(SCc2ccc(F)cc2)nnc1-c1ccc2c(c1)OCCCO2 | 107.0
CCc1ccc(NC(=O)CSc2nc3ccccc3c(=O)n2CCCC(=O)NCCCN2CCOCC2)cc1 | 110.0
Cn1c(=O)c2[nH]c(SCC(=O)O)nc2n(C)c1=O | 102.6
COc1ccc(-n2c(=S)[nH]c3cc(C(=O)Nc4cc(C(N)=O)ccc4OC)ccc3c2=O)c(OC)c1 | 109.3
O=C(COc1ccc(N2C(=O)c3ccccc3NC2c2ccccc2)cc1)Nc1ccccc1 (centres undefined) | 112.4
CN(CCc1noc(-c2ccc(C(=O)N3CCOCC3)cc2)n1)C(=O)C1CCC1 | 116.9
O=C1NC(=S)N(c2cccc(Cl)c2Cl)C(=O)/C1=C/c1ccc2c(c1)OCO2 | 109.8
COC(=O)c1ccc(C(=O)Nc2sc3c(c2-c2nc4ccccc4s2)CCC(C)C3)cc1 (centres undefined) | 109.0
NC(=O)C1CCN(C2CCN(C(=O)c3ccc4c(c3)[nH]c(=S)n3c5ccccc5nc43)CC2)CC1 | 115.4
CCOC(=O)CNC(=O)NCCn1cnc2cc(C(=O)N3CCCC3)ccc21 | 107.3
CN1c2ccccc2C(C)(C)C12C=Nc1c(ccc3ncccc13)O2 (centres undefined) | 104.8

Compound activity deposited in PubChem by ICCB-Longwood Screening Facility, Harvard Medical School.

Only part of the results is shown; rates above refer to the full screens.
